Pf growth 48h – P. falciparum growth inhibition at 48 hours (one generation) | AID 504832 | 310,000 compounds, 5.9% hits | Potency, µM (highest dose often 28.7 µM), for the others: at the top dose activity change, negative = inhibition, actives largely listed as inhibitors | P. falciparum luciferase growth in erythrocytes, 48 h
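Cell-based growth assay: transgenic P. falciparum expressing firefly luciferase, cultured in red cells within RPMI 1640 containing 0.5% w/v Albumax, 24 mM bicarbonate and gentamycin. A drop in luciferase activity indicates inhibition.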
Tb PYK inh – blocks Trypanosoma brucei pyruvate kinase | Q57TT1 | TbPYK enzyme, Kinase-Glo Plus ATP luminescence, 45 min | Potency, µM (doses to about 76.8 µM), for inactives: at the highest dose activity, negative = inhibition, hits mostly inhibitors | 410,000 compounds, 0.12% hits | AID 624173; note: nearly all actives have a fitted effect of over 50% in size
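Quantitative HTS: titrated library compounds versus trypanosomal pyruvate kinase in TEA buffer (pH 7.2) containing KCl, MgCl2, BSA and Tween-20. Reactions were initiated with ADP, 130 uM final. Kinase-Glo Plus luminescence was read after 45 min at RT.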
Pf growth 96h – P. falciparum growth inhibition at 96 hour, primary screen for plastid delayed-death inhibitors; AID 504834; P. falciparum luciferase reporter growth, 96 h; 320,000 compounds, 6.9% hits; Potency, µM (highest dose often 28.7 µM), without a hit: at the highest dose activity change, negative = inhibition, hits mostly inhibitors
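Delayed-death screen, second-generation endpoint: infected erythrocytes, 2% hematocrit, 0.05% parasitemia final; 96 hours at 37 C, 5% CO2; luciferase detection reagent; luminescence decrease equals reduced growth.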
HCV inh – blocks hepatitis C virus | Huh7.5.1 HCVcc-Cre infection, luciferase reporter, 44 h | Potency, µM (series often up to 41.8 µM), inactives show at the top dose activity change, negative = inhibition, hits mostly inhibitors | AID 651820 | 340,000 compounds, 3.4% hits
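Infectious HCVcc-Cre (~0.5 moi) was added to cells just after compound, with cells seeded 4 h earlier at 1,000 per well. Luciferase activity after 44 h culture reported infection; substrate was incubated 15 min at room temperature before reading.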
* marks the source's active call; other numbers are inactive results; u = inconclusive; x = not tested or not shown; & = joins results of further samples; [ ] = dose if it differs, or a comment. Calls come from the whole dose curve; as a rule, active = well fitted curve in the direction sought with a large enough effect; inconclusive = small, poorly fitted or top-dose-only effect, or another doubt; inactive = no such curve, though single readings can be large; an effect the other way counts as inactive or inconclusive. % is set by controls: 0 for no effect and ±100 for the full control effect; potency is the fitted concentration of half-maximal effect.

A first look, 2 compounds:
Keys: A = Pf growth 48h; B = Tb PYK inh; C = Pf growth 96h; D = HCV inh
(1) COc1ccccc1NC(=O)Nc1ccc2c(c1)nc(C)n2C
  A: -45.7%	B: -9.4%	C: -0.2%	D: -1.2%
(2) Cc1occc1-c1nc(-c2ccccn2)no1
  A: 451.5%[activator]	B: -27.7%	C: 202.4%[activator]	D: u

This part in full, repeating the preview:
Keys: A = Pf growth 48h; B = Tb PYK inh; C = Pf growth 96h; D = HCV inh
(1) COc1ccccc1NC(=O)Nc1ccc2c(c1)nc(C)n2C
  A: -45.7%	B: -9.4%	C: -0.2%	D: -1.2%
(2) Cc1occc1-c1nc(-c2ccccn2)no1
  A: 451.5%[activator]	B: -27.7%	C: 202.4%[activator]	D: u
(3) O=C(Nc1ccccc1)c1nc2ccccc2s1
  A: 202.3%[activator]	B: -17.3%	C: 311.0%[activator]	D: -20.8%
(4) COCCc1ccc(OCC(O)CNC(C)C)cc1 (configuration not stated)
  A: 19.6%&-0.3%	B: 1.0%&-7.4%&3.5%&-0.2%	C: 3.6%&10.1%	D: -5.9%[8.37 µM]
(5) CC(C)(C)[C@]1(O)CCN2C[C@H]3c4ccccc4CCc4cccc(c43)[C@@H]2C1
  A: 8.28µM*	B: 1.6%	C: 3.7µM*	D: -4.4%
(6) O=C1O[C@@H]([C@H](O)CO)C(O)=C1O
  A: x	B: -4.0%	C: x	D: 25.9%
(7) CNC(C)[C@@H](O)c1ccccc1 (some centres not stated)
  A: -15.8%	B: 3.0%	C: u	D: x
(8) O=C1O[C@H]([C@@H](O)CO)C(O)=C1O
  A: 2.7%&-0.7%	B: 0.9%&-1.1%	C: u	D: -9.4%
(9) CC(=O)Oc1ccccc1C(=O)Nc1ncc([N+](=O)[O-])s1
  A: u	B: u	C: u	D: x
(10) NCCCC[C@H](N[C@@H](CCc1ccccc1)C(=O)O)C(=O)N1CCC[C@H]1C(=O)O
  A: -1.9%	B: -9.7%	C: 3.0%	D: 10.7%&9.4%
(11) COCCn1c(C)cc(C(=O)COC(=O)c2cccc(O)c2)c1C
  A: u	B: -9.3%	C: 306.3%[activator]	D: -16.9%

Copied from above: nos. 7–11
Keys: A = Pf growth 48h; B = Tb PYK inh; C = Pf growth 96h; D = HCV inh
(7) CNC(C)[C@@H](O)c1ccccc1 (some centres not stated)
  A: -15.8%	B: 3.0%	C: u	D: x
(8) O=C1O[C@H]([C@@H](O)CO)C(O)=C1O
  A: 2.7%&-0.7%	B: 0.9%&-1.1%	C: u	D: -9.4%
(9) CC(=O)Oc1ccccc1C(=O)Nc1ncc([N+](=O)[O-])s1
  A: u	B: u	C: u	D: x
(10) NCCCC[C@H](N[C@@H](CCc1ccccc1)C(=O)O)C(=O)N1CCC[C@H]1C(=O)O
  A: -1.9%	B: -9.7%	C: 3.0%	D: 10.7%&9.4%
(11) COCCn1c(C)cc(C(=O)COC(=O)c2cccc(O)c2)c1C
  A: u	B: -9.3%	C: 306.3%[activator]	D: -16.9%

Source: PubChem

Some of the compounds tested; count on the stated rates, not on these rows.
